Bioassay records as filed in PubChem.
D2 potentiator = potentiates the human D2 dopamine receptor allosterically; P14416; DiscoveRx D2 beta-arrestin cells, luminescence, 90 min; 100% = 57 uM dopamine signal; potentiation, % (concentration not given with the values); 0.23% of 360,000 active; active = potentiation of 50% or more; inconclusive = 30% to 50%; inactive = 30% or less;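 further: compound concentration not given in the record; tested on top of an EC20 dose of dopamine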
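PathHunter D2 cells, attached overnight at 37 deg C, received compound in DMSO plus dopamine at EC20 (50 nM final) for 90 min at 37 deg C. Beta-arrestin recruitment was read as luminescence after 1 h with detection reagent at ambient temperature.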
Sfp inh = blocks B. subtilis Sfp PPTase activity | Q9F4F7 | Biochemical Sfp PPTase activity, qHTS | Potency, µM, for the others: max response, negative = inhibition, actives largely listed as inhibitors | 3.5% of 310,000 active; active means well fitted inhibition curve with a large enough effect; inconclusive means small, poorly fitted or top-dose-only effect, or another doubt; inactive means no such curve, though single readings can be large or run the other way;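 further: the enzyme is Sfp with the accession as filed and its product quenches rhodamine fluorescence; potency means the concentration at half of the fitted maximal effect; 0% = enzyme reaction without inhibitor and -100% = no enzyme wells; top concentration of the series not given in the record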
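Sfp 15 nM + cpd, 15 min RT; start w/ rhodamine-CoA 5 uM, BHQ-2-YbbR 12.5 uM (final); 50 mM Hepes pH 7.6, 10 mM MgCl2, 0.01% NP-40, 0.01% BSA; read 525/598 nm at 0 and 30 min.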
Menin MLL FP FL = menin-MLL binding inhibition, fluorescein peptide; Fluorescence polarization, fluorescein-MLL peptide displacement from menin; FP activity change, % at 61.4 µM; 290,000 tested, under 10 active; AID 1766; inconclusive = falling polarisation curve, or a change in total fluorescence; inactive = total fluorescence flat and polarisation flat or rising; no compound was filed as active; the % refers to the polarisation; negative = inhibition;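 further: % of control where 0% means no effect; inhibitors lower the polarisation; unlabelled MLL peptide was the positive control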
TRPV1 potentiator = enhances activation of the human vanilloid receptor TRPV1. TRPV1-expressing cells, Fluo-8 calcium influx, capsaicin EC20 potentiation; host cell line not named in the record; control for the full effect not named in the record. 0.02% of 320,000 active. potentiation, % at 8.33 µM; active means potentiation above 80%; inconclusive means 30% to 80%; inactive means below 30%; further: 0% is about no effect
Target sequence (Q8NER1 whole entry, looked up): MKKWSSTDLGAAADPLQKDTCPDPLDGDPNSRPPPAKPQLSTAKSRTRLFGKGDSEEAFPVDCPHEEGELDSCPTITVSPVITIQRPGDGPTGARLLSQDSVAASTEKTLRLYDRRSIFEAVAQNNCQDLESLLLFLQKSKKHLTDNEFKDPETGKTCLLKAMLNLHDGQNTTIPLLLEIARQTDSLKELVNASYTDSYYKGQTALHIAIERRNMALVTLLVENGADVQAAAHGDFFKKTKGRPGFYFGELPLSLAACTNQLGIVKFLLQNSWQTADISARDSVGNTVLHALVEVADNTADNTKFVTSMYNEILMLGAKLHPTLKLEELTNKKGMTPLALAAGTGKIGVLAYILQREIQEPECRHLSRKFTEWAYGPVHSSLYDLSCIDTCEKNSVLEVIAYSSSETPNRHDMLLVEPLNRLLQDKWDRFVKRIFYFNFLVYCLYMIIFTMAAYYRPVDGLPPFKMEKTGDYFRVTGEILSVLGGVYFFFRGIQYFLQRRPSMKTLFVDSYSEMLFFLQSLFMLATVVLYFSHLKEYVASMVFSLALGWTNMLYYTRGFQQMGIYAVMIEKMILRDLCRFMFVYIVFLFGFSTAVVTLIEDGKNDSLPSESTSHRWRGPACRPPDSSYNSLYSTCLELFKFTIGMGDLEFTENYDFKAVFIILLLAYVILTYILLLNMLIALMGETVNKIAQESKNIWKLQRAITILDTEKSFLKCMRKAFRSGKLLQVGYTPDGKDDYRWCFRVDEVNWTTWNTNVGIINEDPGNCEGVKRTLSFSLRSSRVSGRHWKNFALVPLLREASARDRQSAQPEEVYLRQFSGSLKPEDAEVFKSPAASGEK
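Fluo-8 calcium influx in TRPV1-expressing cells, kinetic read (ex 480/em 520 nm). Compound added and read 3 min for agonist activity, followed by capsaicin at EC20 final and 2 min further read for enhancement.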
gsp agonist = activates gsp, the McCune-Albright syndrome mutation. gsp mutant cells, cAMP HTRF, 30 min; control for the full effect not named in the record. Potency, µM (series often up to 76.9 µM), for the others: at the top dose activation (cAMP increase), actives largely listed as activators. 0.13% of 340,000 active. AID 624287; active = well fitted activation curve with a large enough effect; inconclusive = small, poorly fitted or top-dose-only effect, or another doubt; inactive = no such curve, though single readings can be large or run the other way; cell line not stated here;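 further: phosphodiesterase inhibitor Ro 20-1724 added with compounds to block cAMP breakdown; potency means the concentration at half of the fitted maximal effect; nearly all actives have a fitted effect of over 60% in size; about a fifth of the inactives were tested at one dose only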
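Cells stably selected in G418 were plated at 2000/well, grown 16-24 hr, then given compounds in DMSO with the PDE inhibitor […] (300 uM solution added) for 30 min at 37C; cAMP was read by HTRF.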
ClpP mod = qHTS Assay for Activators of ClpP | ATP-dependent Clp protease proteolytic subunit (Bacillus subtilis (strain 168)), P80244 | purified B. subtilis ClpP, FRET peptide cleavage, 20 min | Potency, µM (doses to about 57.5 µM), inactives show at the highest dose activity change, negative = active | 1.9% of 340,000 active; active = well fitted falling curve with a large enough effect; inconclusive = small, poorly fitted or top-dose-only effect; inactive = no such curve, though single readings can be large or run the other way; further: potency means the concentration at half of the fitted maximal effect; the source files actives as falling curves though it sought activators and does not explain the sign; nearly all actives have a fitted effect of over 65% in size; many hits overshoot -100%
Target sequence (P80244 whole entry, looked up): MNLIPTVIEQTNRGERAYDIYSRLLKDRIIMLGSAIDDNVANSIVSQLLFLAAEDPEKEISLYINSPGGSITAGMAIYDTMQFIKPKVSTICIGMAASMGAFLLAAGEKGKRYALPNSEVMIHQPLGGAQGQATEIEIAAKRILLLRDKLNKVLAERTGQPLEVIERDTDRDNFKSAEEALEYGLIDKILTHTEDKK
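ClpP 10 microg/mL final, pH 8 Tris/KCl buffer with BSA, glycerol, Tween-20; compound pinned in; FRET-FV substrate; RT 20 min; Ex320/Em430; ΔFRET vs ADEP 5.8 microM, DMSO, no enzyme.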
gsp antag = gsp mutant antagonism; 0.4% of 340,000 active; Potency, µM (top dose mostly 76.9 µM), for the others: at the highest dose activity change, negative = inhibition, most hits filed as inhibitors; gsp-mutant cells, cAMP HTRF, 30 min; control for the full effect not named in the record; AID 624288; active = falling curve of any shape with a large fitted effect; inconclusive = falling curve, mostly with a smaller effect; inactive = flat or rising curve; cell line not stated here;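 further: intracellular cAMP measured with PDE inhibitor Ro 20-1724 present during compound exposure; potency means the concentration at half of the fitted maximal effect; on the % scale 0 is the no-effect control and ±100 the full control effect; nearly all actives have a fitted effect of over 65% in size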
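Cells, 2000/well, grown 16–24 h in DMEM 10% FBS with 0.5 mg/ml G418, then compounds plus […] (300 uM addition stock), 30 min at 37C. cAMP read by HTRF (cAMP-d2 and anti-cAMP antibody-K in lysis buffer) after 30 min RT.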
Active calls of the source: *; ? = inconclusive; . = not tested or not shown; & = joins results of further samples; [ ] = remark or other dose.

SMILES | D2 potentiator | Sfp inh | Menin MLL FP FL | TRPV1 potentiator | gsp agonist | ClpP mod | gsp antag
NC(=S)N=Nc1c(O)n(C2OC(=O)c3ccccc32)c2ccccc12 (stereo not given) | -21 | 0% | -4.2 | -10 | -4% | -7.1% | -33%
COCC(=O)N1CCCC(C(=O)c2ccc(-c3ccccc3)c(F)c2)C1 (stereo not given) | -8 | 11% | 2.6 | -8 | -5%[15.4 µM] | -0.6% | -9%
COc1ccc(N(C(=O)Nc2ccc(Cl)cc2)C2=NCCC2)cc1 | -5 | -3% | 1.8 | 15 | -4% | 0.0% | -3%
O=C(COC(=O)C1c2ccccc2Oc2ccccc21)NC1CCS(=O)(=O)C1 (stereo not given) | -17 | -9% | 2.1 | . | -51% | -1.3% | -1%
S=c1nc(-c2ccccc2)[nH]n1-c1ccccc1 | -12 | 40µM* | 6.2 | -2 | 27% | -1.6% | 0%
COCCN(C)C(=O)CC1C(=O)NCCN1CC(c1ccccc1)c1ccccc1 (stereo not given) | -5 | 2% | -0.9 | -1 | 6% | -1.5% | 3%
CSCC[C@H](NC(=O)N1CCn2c1nc1ccccc12)C(=O)NC1CCCCC1 | -7 | 3% | . | -13 | ? | 1.7% | -3%
Cc1ccccc1NC(=O)C(C)c1ccc(-c2ccccc2)c(F)c1 (stereo not given) | 2 | -24% | -1.1 | 4 | 17% | -1.0% | -16%
CCOC(=O)c1nn(C)c(C)c1Cl | -5 | 5% | 5.6 | 26 | -15%[15.4 µM] | -0.5% | 11%
C/C(=C\C(=O)c1ccc(Br)cc1)Nc1ccc(Cl)cc1 | -5 | -11% | 2.9 | -11 | -2%[15.4 µM] | . | 4%

In the list so far, two contain four or more nitrogen atoms.
SMILES | D2 potentiator | Sfp inh | Menin MLL FP FL | TRPV1 potentiator | gsp agonist | ClpP mod | gsp antag
NC(=S)N=Nc1c(O)n(C2OC(=O)c3ccccc32)c2ccccc12 (stereo not given) | -21 | 0% | -4.2 | -10 | -4% | -7.1% | -33%
CSCC[C@H](NC(=O)N1CCn2c1nc1ccccc12)C(=O)NC1CCCCC1 | -7 | 3% | . | -13 | ? | 1.7% | -3%

The results go on.
SMILES | D2 potentiator | Sfp inh | Menin MLL FP FL | TRPV1 potentiator | gsp agonist | ClpP mod | gsp antag
O=C(/C=C/c1ccccc1[N+](=O)[O-])N1CCCCC1 | -3 | -2% | -7.4 | 11 | -11% | 1.0% | 5%
Cc1cc2oc(C(=O)N(Cc3cccs3)C3CCS(=O)(=O)C3)cc(=O)c2cc1Cl (stereo not given) | -4 | 4% | -0.2 | -10 | -4%[15.4 µM] | -6.1% | -17%
CCOC(=O)c1c(C)n(C)c2ccc(O)c(CN(CC)CC)c12 | -17 | 12% | 5.3 | 11 | 0% | -1.4% | 17%
COC(=O)c1cc(OC)c(OC)cc1NC(=O)CSc1ccccc1 | -3 | -11% | -1.6 | ? | -1% | -6.4% | -27%
O=C(Nc1ccccc1F)c1ccc(-n2cncn2)nc1 | -1 | -1% | 2.3 | -1 | 4% | 0.6% | 11%
Cc1ccc(S(=O)(=O)N(CC(=O)NCCSc2ccccn2)c2ccc(C)c(C)c2)cc1 | -21 | 0% | -1.2 | -4 | -4% | -0.8% | -18%
CCOC(=O)c1sc(/S(C)=N\S(=O)(=O)c2cccc(Cl)c2)c2c1CCC=C2 (stereo not given) | 10 | -10% | 11 | -4 | -19% | -3.2% | 1%
COC(=O)[C@H](Cc1ccccc1)NC(=O)Nc1ccc(OC)cc1 | -12 | 8% | 0.4 | 0 | -14%[15.4 µM] | . | 0%
CCNCc1cc2cc(C)ccc2[nH]c1=O | -11 | -19% | 6.8 | 12 | -5% | ? | 2%
CC(/C=N/NC(=O)Cn1nnc(N)n1)=C\c1ccc(C(C)C)cc1 | 2 | 7% | 1.0 | -23 | 7%[15.4 µM] | . | 14%
Cc1ccc(S(=O)(=O)N2CCC(C(=O)OCC(=O)N(C)c3ccccc3)CC2)cc1C | 2 | . | . | 3 | 0% | 1.4% | 7%
Cc1ccc(S(=O)(=O)NCCCN2CCCC2)cc1 | -11 | -11% | 3.4 | ? | 10% | 0.9% | 17%
COC(=O)/C=C1\S/C(=N/N=C/c2ccc(Cl)cc2)NC1=O | -10 | 13% | -0.6 | 5 | 0%[15.4 µM] | . | -2%
Cc1ccc(S(=O)(=O)Nn2c(C)nnc2-n2nc(C)cc2C)cc1 | -17 | -16% | 2.0 | -22 | -23% | -0.9% | 9%
CCCc1cc(C(=O)Nc2sc(C)c(CC)c2C#N)no1 | -13 | 56µM* | 1.0 | -23 | ? | -7.3% | -29%
CCOC(=O)C(NC(=O)c1ccccc1)=C1CCCCC1 | -22 | 12% | -4.2 | 1 | 0% | -15% | 10%
COC(=O)Cc1ccc(OC(=O)c2cccc(S(=O)(=O)N3CCN(C)CC3)c2)cc1 | -1 | . | . | 3 | -12%[15.4 µM] | . | -12%
Cc1cc(C)nc(NC(=O)/C=C/c2ccccc2Cl)c1 | -11 | 13% | -1.2 | -14 | -31% | 1.0% | -15%
Cc1ccc2[nH]c(=O)c(CN(C(=O)c3cccc([N+](=O)[O-])c3)C(C)C)cc2c1 | -3 | -18% | 1.2 | -7 | -1% | -6.8% | -5%
CNC(=O)c1c(NC(=O)CS(=O)(=O)c2ccccc2)sc(C)c1C | 3 | . | . | 16 | -18% | -1.8% | 6%
Fc1ccc(Cn2nnnc2CN2CCN(C3CCCC3)CC2)cc1 | -7 | -4% | 2.3 | 1 | -19% | -6.0% | 9%
CC(C)n1cc(C(=O)N2CCCC(N3CCN(c4ccc(F)cc4)CC3)C2)cn1 (stereo not given) | 1 | 6% | . | 1 | -15% | -0.3% | 2%
Cc1cccc(NC(=S)NC2CCSc3ccccc32)c1 (stereo not given) | -10 | 9% | . | 9 | 29% | -2.5% | -15%
CCOC(=O)c1c(S(=O)(=O)NCC(=O)N2CCN(c3ccccc3)CC2)c(C)n(C)c1C | 0 | 2% | . | -3 | 26% | 1.8%&0.2% | 12%
O=C(O)c1ccn2c(C(=O)c3ccc(Cl)cc3)c(-c3ccccc3)cc2c1 | -5 | 14% | 0.6 | 1 | 3%[15.4 µM] | . | 0%
COc1cc(S(=O)(=O)NCCCn2ccnc2)ccc1F | -6 | 14% | 0.1 | 3 | -72%[inhibitor] | 0.0% | 2%
COc1ccc(CC(=O)NNC(=S)Nc2ccccc2)cc1Cl | -52 | 15% | 0.0 | 15 | 11%[15.4 µM] | 0.6% | -17%
CS(=O)(=O)N1CCN(c2ccc(NC(=O)CSc3nnc(-c4ccco4)o3)cc2)CC1 | 0 | -8% | 0.3 | 9 | 3% | . | 6%
O=C1N/C(=C/c2ccco2)C(=O)N1Cc1ccccc1F | -1 | 50µM* | 15 | -5 | 5%[15.4 µM] | -2.1% | 5%
COc1ccc(N2CCN(S(=O)(=O)c3cccs3)CC2)cc1 | -6 | 2% | 1.2 | -8 | -6% | -1.5% | 5%
Cc1cc(C)c2sc(N(CCCN(C)C)C(=O)c3ccc(S(=O)(=O)N(C)Cc4ccccc4)cc3)nc2c1 | -35 | . | . | 0 | 8% | -3.6% | 11%
Cc1ccc(NC(=O)c2c(O)c3ccccc3n(C)c2=O)nc1 | 3 | -5% | 8.0 | -12 | -2% | 3.7% | 13%
COCCSc1ccccc1C(=O)NCCCn1ccnc1 | -8 | 45µM* | -2.9 | 1 | -1% | -0.7% | 0%
O=C(NCc1cccnc1)NC1CCCN1S(=O)(=O)c1ccc(Cl)cc1 (stereo not given) | -10 | 4% | 3.4 | -6 | 37% | 1.9% | -7%
O=C(CNS(=O)(=O)c1cccc(Cl)c1)OCc1csc(-c2ccccc2)n1 | -2 | -5% | 7.3 | 7 | 23% | -2.8% | -5%
COc1ccccc1/C=N/N1CCN(Cc2ccccc2Cl)CC1 | -11 | 9% | -2.0 | 7 | -1%[15.4 µM] | 0.7% | 1%
CCOC(=O)CN(C(=O)CSc1nnc(C)n1-c1ccccc1)c1cccc([N+](=O)[O-])c1 | 2 | 24% | 1.9 | 0 | -24% | -0.6% | -13%
CC(=O)OCC(=O)[C@@]1(O)CC[C@H]2[C@@H]3CCC4=CC(=O)CC[C@]4(C)[C@H]3C(=O)C[C@@]21C | -1 | 2% | -6.1&4.0 | 0 | . | 1.7% | 2%
Fc1ccccc1N1CCN(C2CCCN(Cc3cccc(C(F)(F)F)c3)C2)CC1 (stereo not given) | -6 | 0% | 0.0 | -8 | ? | . | -1%
CC(C)CCOc1cccc(OCC(=O)O)c1 | 0 | 3% | -0.9 | -4 | -43%[inhibitor] | . | -19%
CN(C(=O)N1CCN(c2ccccn2)CC1)c1ccccc1 | 8 | 8% | 2.7 | -9 | -1% | ? | -2%
O=C(NCC1CCCO1)C(c1cccs1)N(C(=O)Cn1nnc(-c2cccs2)n1)C1CCCC1 (stereo not given) | 5 | 15% | 0.3 | -14 | 13% | -3.5% | -3%
COc1ccc(OCC(O)CN(C)C(=O)C(C)Oc2ccccc2)cc1 (stereo not given) | -16 | 1% | 2.3 | -5 | -41%[inhibitor] | 1.3% | 4%
Cc1ccc2oc(C(=O)N(C)Cc3cnccn3)c(C)c2c1 | 5 | 7% | -0.7 | -22 | 31% | 0.4% | 11%
COc1ccc(S(=O)(=O)NCCCN2CCCC2=O)c(OC)c1 | -10 | 8% | . | 3 | 4% | -0.1% | 18%
Cc1ccc2c(c1)NCC(C(=O)NC1CCC(C)CC1)O2 (stereo not given) | -25 | 0% | -1.7 | -33 | 1% | 1.2% | 9%
C=CCOc1ccc(/C=C(\C#N)C(=O)Nc2ccccn2)cc1OC | -6 | 20% | -5.5 | -7 | 11%[15.4 µM] | . | -1%
CN1CCN(S(=O)(=O)c2ccc(NC(=O)c3ccc(Br)s3)cc2)CC1 | -11 | -8% | -2.3 | 5 | -29% | -2.8% | 13%
COC(=O)C1=C(C)NC(=O)NC1c1cn(-c2ccccc2)nc1-c1cccs1 (stereo not given) | 16 | -9% | -2.9 | -7 | 15% | -3.6% | -11%
Cc1[nH]c2ccccc2c1-c1nc2ccccc2[nH]c1=O | -3 | 11% | -3.1 | 29 | ? | . | 7%
Cc1ccccc1NC(=O)CSc1nnc(C2CC2)n1CC1CCCO1 (stereo not given) | 2 | 0% | -0.5 | -5 | -6%[15.4 µM] | -0.5% | 10%
